TRPV1 potentiator: enhances activation of the human vanilloid receptor TRPV1; Q8NER1; TRPV1-expressing cells, Fluo-8 calcium influx, capsaicin EC20 potentiation; host cell line not named in the record; control for the full effect not named in the record; potentiation, % at 8.33 µM; 320,000 compounds, 0.02% hits; AID 540277; active means potentiation above 80%; inconclusive means 30% to 80%; inactive means below 30%; note: 0% is about no effect
Target sequence (Q8NER1 whole entry, looked up): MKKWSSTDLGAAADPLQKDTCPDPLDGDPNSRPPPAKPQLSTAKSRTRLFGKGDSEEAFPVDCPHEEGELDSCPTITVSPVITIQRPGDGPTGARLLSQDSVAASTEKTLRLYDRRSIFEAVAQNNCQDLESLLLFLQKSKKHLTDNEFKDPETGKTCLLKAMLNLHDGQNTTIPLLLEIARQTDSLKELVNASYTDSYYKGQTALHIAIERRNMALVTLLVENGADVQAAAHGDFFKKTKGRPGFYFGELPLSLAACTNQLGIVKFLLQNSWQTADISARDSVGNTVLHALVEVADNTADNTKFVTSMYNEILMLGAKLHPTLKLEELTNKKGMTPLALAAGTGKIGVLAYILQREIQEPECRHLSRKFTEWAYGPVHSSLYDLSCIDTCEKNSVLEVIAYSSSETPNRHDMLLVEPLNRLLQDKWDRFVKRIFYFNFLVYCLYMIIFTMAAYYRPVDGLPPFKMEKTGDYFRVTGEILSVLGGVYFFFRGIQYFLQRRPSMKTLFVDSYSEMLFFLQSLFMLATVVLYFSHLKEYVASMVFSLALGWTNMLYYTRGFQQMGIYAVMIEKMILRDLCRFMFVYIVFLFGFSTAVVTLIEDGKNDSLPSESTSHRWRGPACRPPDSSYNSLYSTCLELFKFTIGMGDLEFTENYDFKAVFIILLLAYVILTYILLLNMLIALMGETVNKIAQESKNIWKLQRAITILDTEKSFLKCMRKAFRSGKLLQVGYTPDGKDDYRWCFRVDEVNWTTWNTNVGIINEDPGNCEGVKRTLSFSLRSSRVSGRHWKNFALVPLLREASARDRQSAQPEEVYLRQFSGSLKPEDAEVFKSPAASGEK
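TRPV1-expressing cells were cultured overnight at 35.5C and loaded with Fluo-8 calcium dye for 40 to 90 min at room temperature. After a 10 s baseline, compound was added and calcium influx was read kinetically for 3 min (ex 480/em 520 nm).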
Six1-Eya2 inh: blocks human Six1 binding to Eya2; activity change, % (concentration not given with the values); AID 651725; Q15475+O00167; 360,000 compounds, 0.56% hits; AlphaScreen GST-Six1/His-Eya2 binding, biochemical; stronger effect = lower value; control for the full effect not named in the record; in the data active = activity change below about -65%; inconclusive = about -30% to -65%; inactive = above about -30%; note: % is set by controls: 0 for no effect and ±100 for the full control effect
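AlphaScreen luminescence read after one hour at 37 °C in darkness. Pin-transferred compounds met GST-Six1 and His-Eya2 protein (5X stock 250 nM/500 nM) plus glutathione donor and Ni-chelate acceptor beads (5X, 50 ug/mL).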
CtBP-E1A inh: CtBP/E1A binding inhibition; AlphaScreen GST-E1A/His-CtBP binding, 1536-well; stronger effect = lower value; control for the full effect not named in the record; activity change, % (test concentration not listed); 340,000 compounds, 0.49% hits; AID 651724; in the data active means activity change below about -65%; inconclusive means about -30% to -65%; inactive means above about -30%; note: % is set by controls: 0 for no effect and ±100 for the full control effect
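Steps: dispense buffer (Tris pH 8.0, NaCl 300 mM, TCEP 1 mM, BSA, Tween 20); add 5X protein mix (GST-E1A, His-CtBP, 125 nM each); pin 23 nL compound; 2 h at 37 °C, dark; add 5X beads (50 ug/mL); 1 h; read.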
TRPML1 agonist: human mucolipin-1 channel agonism; activation, % (no concentration beside the values); 410,000 compounds, 0.12% hits; AID 624414; Q9GZU1; TRPML1-expressing cells, Ca2+ dye fluorescence, FDSS; host cell line not named in the record; reference of the full effect not given here; in the data active = activation above about 50%; inconclusive = about 30% to 50%; inactive = below about 30%; note: 0% is about no effect; the text of the record puts the active cut at 80%
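Tetracycline-induced TRPML1-DL cells are seeded and incubated overnight before loading with a no-wash Ca2+ dye and quencher. Agonist activity is taken from the 110 s fluorescence read following compound pin-transfer on an FDSS, before EC80 54-4 challenge.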
TRPML1 inh: blocks the human TRPML1 channel. Q9GZU1. TRPML1-inducible cells, Ca2+ dye fluorescence, FDSS; stronger effect = lower value; inhibition of EC80 agonist-evoked calcium signal. activity change, negative = inhibition, % (concentration not given with the values). 390,000 compounds, 0.02% hits. AID 624415; in the data active means activity change below about -50%; inconclusive means about -30% to -50%; inactive means above about -30%;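 note: stimulus is agonist 54-4 at its EC80 concentration; % is set by controls: 0 for no effect and ±100 for the full control effect; the text of the record puts the active cut at -80%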
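Calcium fluorescence in TRPML1-DL cells induced overnight with Tet: a 110 s read after compound pin addition, then a 110 s antagonist read after challenge with 54-4 at 4 uM final (EC80).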
D2 potentiator: positive allosteric modulators of human D2 dopamine receptor | P14416 | AID 624464 | DiscoveRx D2 beta-arrestin cells, luminescence, 90 min; 100% = 57 uM dopamine signal | potentiation, % (no concentration beside the values) | 360,000 compounds, 0.23% hits; active = potentiation of 50% or more; inconclusive = 30% to 50%; inactive = 30% or less;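 note: compound concentration not given in the record; tested on top of an EC20 dose of dopamine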
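D2 cells co-treated with compound plus 50 nM dopamine (EC20) for 90 min at 37 deg C to detect potentiation. Beta-arrestin recruitment was read as enzyme-fragment luminescence after 1 h at ambient temperature. Full response was set by 57 uM dopamine.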
An asterisk follows results filed as active; ? = inconclusive; nt = no result given; & = joins results of further samples. The order is random. Share with any hit: about 0.95%.

SMILES	TRPV1 potentiator	Six1-Eya2 inh	CtBP-E1A inh	TRPML1 agonist	TRPML1 inh	D2 potentiator
CCc1cc(C(=O)NCC(c2ccco2)N2CCCCC2)sc1C (stereo unspecified)	-12	-12	nt	-1.3	-11	-36
CCOc1ccc(-c2noc(CCC(=O)NC3CCCC3)n2)cc1OC	17	7	-7	-1.0	7	-2
CCCCN1C(=O)C(O)=C(C(C)=O)C1c1ccccc1[N+](=O)[O-] (stereo unspecified)	-12	1	nt	0.5	19	0
Cc1cc(C)cc(N(CCC#N)C(=O)COC(=O)c2ccc(OCc3c(C)noc3C)cc2)c1	23	-10	3	1.4	5	16
COc1ccccc1N1C(=O)C2C3CC(c4ccccc4)C(C3)C2C1=O (stereo unspecified)	-3	5	13	-0.5	9	-11
CCCCc1ccc(S(=O)(=O)NC(=O)C2(C)CCN2C(=O)c2ccccc2)cc1 (stereo unspecified)	nt	6	0	-0.3	nt	-5
COc1cccc(Cn2nnc(C(=O)Nc3cc(Cl)ccc3OC)c2N)c1	7	-3	-7	1.2	-5	-2
CC(C)c1nc(SCC(=O)N2c3ccccc3CC2C)c2ccccc2n1 (stereo unspecified)	-8	2	10	2.4	27	-2
Cc1ccc(S(=O)(=O)N2[C@@H](c3ccc(Br)cc3)C(C(=O)O)=CC[C@H]2c2cccc(C)c2)cc1	nt	13	7	0.0	40	nt
CN(C1CCCCC1)S(=O)(=O)c1ccc(S(=O)(=O)N2CCCC2)cc1	-28	2	10	0.2	14	-11
CN(C)CCNC(=O)c1ccc2c(c1)NC(=O)c1ccccc1S2	-10	2	nt	1.5	-15	-18
CC(Sc1nncs1)C(=O)Nc1ccc2c(c1)OCCO2 (stereo unspecified)	-6	4	-11	0.8	2	-1
O=C1CCN(S(=O)(=O)c2ccccc2)CCN1CCOCc1ccc(F)cc1	-2	0	6	-0.6	-8	-1
COc1ccc(C2NCCc3sccc32)cc1 (stereo unspecified)	5	11	0	2.5	1	-8
Cc1ccc(Cn2nc(C)c(NC(=O)c3cc(-c4ccc5c(c4)OCO5)on3)c2C)cc1	-6	-4	-10	-0.3	-9	6
CCC(=O)OCC(=O)Nc1ccc(OC)cc1[N+](=O)[O-]	3	8	1	-0.8	-2	-3
O=C(NC(=S)Nc1ccc(S(=O)(=O)N2CCCC2)cc1)c1cccs1	-25	-10	-20	1.4	23	-18
Cc1ccc(C(=O)N/C(=C\c2ccc(-c3ccc(Br)cc3)o2)C(=O)NCCCN(C)C)cc1	11	-6	-6	0.2	-8	0
O=C(CCN1C(=O)/C(=C/c2ccc3c(c2)OCO3)SC1=S)NNC(=O)c1cccnc1	-7	-3	6	1.3	-20	0
CCC(C)(C)NC(=O)c1cc([N+](=O)[O-])ccc1N1CCCCC1	-13	-7	-1	1.4	8	-13
C=C(C)C1CC=C(C)/C(=N/NC(=O)COc2cccc3ccccc23)C1 (stereo unspecified)	8	4	2	0.8	-11	-2
COc1cccc(-c2noc(C3CCCN(C(=O)c4cccc(F)c4)C3)n2)c1 (stereo unspecified)	-3	-2	3	1.7	10	0
CS(=O)(=O)c1ccc(Cl)c(NC(=O)COC(=O)Cc2c[nH]c3ccccc23)c1	30	0	-4	-0.6	-4	-2
O=C(NC(=S)NCCN1CCOCC1)c1ccc(Cl)cc1Cl	4	8	-8	1.5	1	-4
COc1ccc(CC(=O)N/N=C/C=C/c2ccc3c(c2)OCO3)cc1OC	nt	-69*	-18	2.2	8	-6

Compound profiles, as listed above. Values in the order: TRPV1 potentiator | Six1-Eya2 inh | CtBP-E1A inh | TRPML1 agonist | TRPML1 inh | D2 potentiator
Record of CCC(=O)OCC(=O)Nc1ccc(OC)cc1[N+](=O)[O-] → 3 | 8 | 1 | -0.8 | -2 | -3
Record of COc1ccc(CC(=O)N/N=C/C=C/c2ccc3c(c2)OCO3)cc1OC → nt | -69* | -18 | 2.2 | 8 | -6
Record of O=C(CCN1C(=O)/C(=C/c2ccc3c(c2)OCO3)SC1=S)NNC(=O)c1cccnc1 → -7 | -3 | 6 | 1.3 | -20 | 0

Limited to D2 potentiator (two entries from above):
molecule,D2 potentiator
CCc1cc(C(=O)NCC(c2ccco2)N2CCCCC2)sc1C (stereo unspecified),-36
CCOc1ccc(-c2noc(CCC(=O)NC3CCCC3)n2)cc1OC,-2

Carrying on.
SMILES	TRPV1 potentiator	Six1-Eya2 inh	CtBP-E1A inh	TRPML1 agonist	TRPML1 inh	D2 potentiator
COc1cc(C(c2sc3nc(C)nn3c2O)N2CCC3(CC2)OCCO3)cc(OC)c1OC (stereo unspecified)	-15	-2	-4	-1.0	-1	0
CCOC(=O)c1ccc(Nc2ncnc3ccccc23)cc1	-4	1	-9	0.4	48	-21
O=C(N/N=C/c1cccc([N+](=O)[O-])c1O)c1cccs1	-6	-91*	7	2.0	12	-45
CCOC(=O)Cn1nc(C)n(-c2ccc(C(C)(C)C)cc2)c1=O	-4	5	0	-0.9	2	-8
COc1ccc(-c2ccc(C(=O)Nc3cccc(C(C)=O)c3)c3occc23)c(C)c1	nt	-6	-9	0.4	nt	-2
COc1ccccc1CNC(=O)c1ccccc1N(C)S(C)(=O)=O	3	0	8	-0.8	-3	-9
Cc1cc(C(C)(C)C)cc(C)c1COC(=O)C1CCC(=O)N1 (stereo unspecified)	-7	0	1	1.5	48	-8
COc1ccccc1C(=O)NC(=S)Nc1ccc(N2CCOCC2)cc1	nt	-16	7	-0.4	-29	-21
CC(C)C(=O)C1=Cc2cccc([N+](=O)[O-])c2OC1N1CCOCC1 (stereo unspecified)	-20	0	-13	5.6	6	-3
CCOC(=O)c1cccc(C2=CC(=O)C[C@H](c3ccc(OC)c(OC)c3)C2)c1	-8	-12	-5	2.6	-13	11
CN(C)/C=C(\C#N)S(=O)(=O)c1ccccc1	6	4	nt	1.0	14	-7
CC(C)C[C@H](NC(=O)N1CCn2c1nc1ccccc12)C(=O)NC1CC1	9	6	0	0.2	6	-11
CC(C)C[C@H](NC(=O)C1CC(=O)N(c2ccc3c(c2)OCCO3)C1)C(=O)N1CCCCC1 (stereo partly specified)	-5	-1	-1	0.3	7	-17
O=C(NCCc1cccs1)C12CN(Cc3ccccc3)CC1C(c1cccc([N+](=O)[O-])c1)=NO2 (stereo unspecified)	-9	-23	-27	0.4	7	-8
c1ccc(CCn2nnnc2CN2CCN(C3CCCC3)CC2)cc1	-10	5	3	0.4	10	9
CCCCNC(=O)c1ccccc1C(=O)NC1(C(=O)NCCCC)CCCC1	nt	7	6	-0.6	5	-28
CC1CCCCN1C(=O)CSc1nnc(-c2ccc(Cl)s2)o1 (stereo unspecified)	-5	-3	0	0.8	-11	-12
Cc1nc2cc(C(=O)NCCN3CCOCC3)ccc2n1-c1ccc(F)cc1F	-3	1	16	-0.4	12	-9
Cc1csc(SCc2c(C(=O)O)oc3ccccc23)n1	5	1	2	0.0	25	10
CC[C@@H]1C(c2cccc(Cl)c2)=NN(c2ccc(Br)cc2)[C@H]1C(=O)N1CCOC1=O	nt	60	68	-0.3	16	-3
O=C(c1ncn(Cc2ccccc2)c1C(=O)N1CCN(c2ccccc2)CC1)N1CCN(c2ccccc2)CC1	nt	-10	-7	-0.1	20	-4
COc1cc(-c2cc(C(=O)Nc3cccc(C(C)=O)c3)c3ccccc3n2)cc(OC)c1OC	6	3	0	1.7	-2	25
CSc1ccc(/C=C/C(=O)OCC(=O)N(C)CCC#N)cc1	11	6	nt	-0.2	22	-17
Cc1cc(C(=O)Nc2c(C)n(C)n(-c3ccccc3)c2=O)cs1	4	3	6	0.1	-1	-3
CCN(CC)S(=O)(=O)c1cccc(C(=O)N/N=C/c2ccccn2)c1	-1	-73*	-23	-0.5	-17	0
More records follow:
SMILES	TRPV1 potentiator	Six1-Eya2 inh	CtBP-E1A inh	TRPML1 agonist	TRPML1 inh	D2 potentiator
CC(C)C(=O)COc1c2occc2cc2ccc(=O)oc12	nt	-1	6	nt	nt	-13
Cc1sc2ncnc(Sc3ccccc3C(=O)Nc3ccc(Br)cc3)c2c1C	-6	0	1	2.4	0	-5
CCOCC(=O)Nc1sc2c(c1C(=O)OCC)CCCC2	-11	4	-11	3.0	0	4
CCN(CC)S(=O)(=O)c1ccc2c(c1)c(=O)c(C(=O)NCCCN(C)c1ccccc1)cn2C	-2	2	3	-0.3	4	-8
COCCN1CCn2c(nc3cc(NC(=O)c4ccc(OC)cc4)ccc32)C1	14	-19	-16	1.1	1	-2
Cc1ccc(C)c(S(=O)(=O)N2CCN(C(=O)[C@@H](NC(=O)c3ccc(F)cc3)C(C)C)CC2)c1	-17	-2	nt	-0.1	-1	-5
COc1ccc(Cl)cc1NC(=O)CCc1nc(-c2ccccc2F)no1	-1	10	7	0.5&3.1	4&25	-5
CN(C)CCNC(=O)CCn1nc(-c2ccc(Cl)cc2)ccc1=O	14	10	4	0.2	32	-4
C=CCn1c(=O)c2ccccc2n2nnc(C(=O)OCC)c12	6	1	-22	2.1	4	-25
CCOc1ccc(C2/C(=C(\O)c3ccc4c(c3)OCCO4)C(=O)C(=O)N2CCCN2CCOCC2)cc1OC (stereo unspecified)	-7	-18	-18	-0.1	14	-28
COC(=O)C[C@@H]1C[C@@H]2c3cc(NS(=O)(=O)c4ccc(F)cc4)ccc3O[C@@H]2[C@H](CO)O1	nt	7	6	-0.8	-22	9
COc1ccc(-c2[nH]ncc2-c2csc(C)n2)c(O)c1	-1	0	nt	0.2	23	-4
COc1c(/C=N/NC(=O)c2ccccc2O)c(CCN(C)C(C)=O)cc2c1OCO2	4	-9	-12	1.1	3	-51
Cc1cc(C)cc(N(C(=O)CNC(=O)c2ccco2)C(C(=O)NC2CCCC2)c2cccnc2)c1 (stereo unspecified)	-6	-2	-1	0.8	-6	6
CN(C)c1ccc(-c2csc(C(C)(O)c3cccc(F)c3)n2)cc1 (stereo unspecified)	nt	?	?	-0.6	nt	-10
CCCCn1c(=O)c(C(=O)c2ccccc2)nc2ccccc21	-13	-6	-4	-0.4	8	-4
O=C(NCCc1csc(-c2ccc(C(F)(F)F)cc2)n1)c1cccs1	-1	-6	2	3.3	26	-7
Cc1nnc(N2CCC(C(=O)N3CCCCCC3)CC2)c2nn(-c3ccc(Cl)cc3)c(C)c12	13	-14	nt	1.3	6	-5
Cc1cc(Cl)nc(SCC(=O)c2ccccc2)n1	-38	10	6	1.1	-5	-4
COc1ccc(C2=CC(c3c(C)nn(-c4ccccc4)c3Cl)n3nnnc3N2)cc1OC (stereo unspecified)	0	-9	-10	2.9	20	-23
CCOc1cccc(C2CC(=O)Nc3cc(OC)c(OC)cc32)c1 (stereo unspecified)	-10	1	-1	1.7	1	-2
N/C(=N\c1nc(CSc2ccccn2)cc(=O)[nH]1)Nc1ccc(Cl)cc1Cl	4	12	13	2.3	18	-8
COCc1cc(C)nc(OCC(=O)N/N=C/c2ccc(O)cc2O)c1C#N	-6	-84*	-88*	-0.6	13	-1
COc1ccc(NS(=O)(=O)c2cc(NC(=O)CCNC(C)=O)ccc2N2CCOCC2)cc1	19	3	6	0.4	7	2
CCOC(=O)C1CCN(C(=O)c2ccc3nc(-c4ccc(OC)cc4)c(-c4ccc(OC)cc4)nc3c2)CC1	5	18	22	0.1	2	11
